YB-1 expr inh – inhibitors of YB-1 gene expression, primary screen, cell-based, fluorescence. actives 0.37% (n = 30,000). U2OS, qRT-PCR YB-1 vs CDIP delta delta Cp, 16 h; stronger effect = higher value; zero = DMSO, each unit about twofold. AID 434959, 2010. delta delta Cp (YB-1 minus CDIP) (concentration not given with the values);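 active = delta delta Cp rounded down to an integer at or above 3, about 3 SD of DMSO wells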;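 note: higher means less YB-1 transcript or more CDIP transcript relative to DMSO; stock transfer was 100 nL into about 100 µL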
Active calls of the source: *.

SMILES	YB-1 expr inh
COCCOC(=O)N1C(=O)[C@@]2(c3cc(C#CCNC(N)=O)ccc31)[C@H](C(N)=O)[C@H]1C(=O)O[C@H](c3ccccc3)[C@H](c3ccccc3)N1[C@@H]2c1ccccc1OCCO	-12
C[C@H]1CN([C@@H](C)CO)C(=O)CCCn2nncc2CO[C@H]1CN(C)S(=O)(=O)c1cccc(F)c1	-1.9
COc1ccc(NC(=O)N(C)C[C@@H]2Oc3ncc(C#Cc4ccc(C(F)(F)F)cc4)cc3C(=O)N([C@H](C)CO)C[C@@H]2C)cc1	-0.055
C=CCNC(=O)[C@@H]1[C@H]2C(=O)O[C@H](c3ccccc3)[C@H](c3ccccc3)N2[C@H](c2ccccc2OCCO)[C@@]12C(=O)N(C(=O)OCCOC)c1ccc(C#CC3=CCCCC3)cc12	-0.58
O=C1c2ccccc2C(=O)N1C1CCN(Cc2ccc(OCCO)cc2)CC1	-0.17
COc1cc2c(cc1OC)CN(C(=O)[C@H]1[C@@H]3C(=O)O[C@@H](c4ccccc4)[C@@H](c4ccccc4)N3[C@@H](c3ccccc3OCCO)[C@]13C(=O)Nc1ccc(C#CCNC(N)=O)cc13)CC2	-0.23
C[C@H](CO)N1C[C@H](C)[C@H](CN(C)C(=O)NC2CCCCC2)Oc2ncc(C#Cc3ccccc3)cc2C1=O	0.21
C[C@H]1CN([C@@H](C)CO)C(=O)CCCn2cc(nn2)CO[C@H]1CN(C)C(=O)Nc1ccc(F)cc1	-0.24
CCOc1cc(/C=N/NC(=O)c2ccccn2)ccc1O	-0.2
O=C(N/N=C/c1ccccc1O)c1ccccc1O	0.29
COCCCNC(=O)[C@@]1(C)c2ccccc2C(=O)N(Cc2cc(C(F)(F)F)cc(C(F)(F)F)c2)[C@H]1c1ccc(CO)cc1	0.11
COC(=O)CCCCCCC(=O)N/N=C/c1ccc(-c2ccccc2)cc1	-0.48
O=C(N/N=C/c1ccc(Br)o1)c1ccccn1	-0.18
O=C(CCCCCC(=O)Nc1ccccc1O)N/N=C/c1ccccc1C(=O)O	-0.24
O=C(N/N=C/c1ccc(-n2ccnc2)cc1)c1ccccn1	-0.0094
O=C(c1ccccc1)N1Cc2ccccc2[C@H]2OC(c3ccc(OCCCO)cc3)=N[C@@]2(CCS(=O)(=O)c2ccccc2)C1=O	-0.56
COc1ccc(-c2cnc3c(c2)C(=O)N([C@H](C)CO)C[C@H](C)[C@H](CN(C)Cc2ccc4c(c2)OCO4)O3)cc1	0.48
O=C(NO)c1cccc(C(=O)N/N=C/c2cc(Br)cc([N+](=O)[O-])c2O)c1	-0.17
O=C1O[C@H](c2ccccc2)[C@H](c2ccccc2)N2[C@H]1[C@@H](C(=O)N1CCCCCCC1)[C@]1(C(=O)Nc3ccc(C#CC4(O)CCCCCC4)cc31)[C@H]2c1ccccc1OCCO	-0.35
C[C@H](CO)N1C[C@H](C)[C@H](CN(C)C(=O)CCC(F)(F)F)OCc2cnnn2CCCC1=O	-0.21
C[C@@H]1CN([C@H](C)CO)C(=O)CCCn2nncc2CO[C@H]1CN(C)C(=O)c1ccc(N2CCN(C)CC2)cc1	-0.09
C[C@H](CO)N1C[C@H](C)[C@H](CN(C)S(=O)(=O)c2cccs2)OCc2cnnn2CCCC1=O	-1.2
COC(=O)CCCCCCC(=O)N/N=C/[C@@H](O)[C@@H](O)[C@H](O)[C@H](O)CO	-0.52
C[C@H](CO)N1C[C@H](C)[C@H](CN(C)C(=O)Nc2ccc3c(c2)OCO3)Oc2ncc(C#Cc3ccc(C(F)(F)F)cc3)cc2C1=O	-0.084
COCCOC(=O)N1C(=O)[C@@]2(c3cc(C#CC4(O)CCCCCC4)ccc31)[C@H](c1ccc(O)cc1)N1[C@H](c3ccccc3)[C@H](c3ccccc3)OC(=O)[C@H]1[C@@H]2C(N)=O	-0.56

The closing 5 entries of the part above are carried over, then new ones follow.
SMILES	YB-1 expr inh
C[C@@H]1CN([C@H](C)CO)C(=O)CCCn2nncc2CO[C@H]1CN(C)C(=O)c1ccc(N2CCN(C)CC2)cc1	-0.09
C[C@H](CO)N1C[C@H](C)[C@H](CN(C)S(=O)(=O)c2cccs2)OCc2cnnn2CCCC1=O	-1.2
COC(=O)CCCCCCC(=O)N/N=C/[C@@H](O)[C@@H](O)[C@H](O)[C@H](O)CO	-0.52
C[C@H](CO)N1C[C@H](C)[C@H](CN(C)C(=O)Nc2ccc3c(c2)OCO3)Oc2ncc(C#Cc3ccc(C(F)(F)F)cc3)cc2C1=O	-0.084
COCCOC(=O)N1C(=O)[C@@]2(c3cc(C#CC4(O)CCCCCC4)ccc31)[C@H](c1ccc(O)cc1)N1[C@H](c3ccccc3)[C@H](c3ccccc3)OC(=O)[C@H]1[C@@H]2C(N)=O	-0.56
COc1ccc(O)c(/C=N/NC(=O)CCCCCCC(=O)Nc2ccccc2O)c1	-0.92
C[C@H](CO)N1C[C@H](C)[C@@H](CN(C)C(=O)c2ccccc2)OCc2cn(nn2)CCCC1=O	-0.00048
O=C(N/N=C/c1ccc(C(F)(F)F)cc1)c1ccccc1O	0.048
O=C(N/N=C/c1ccc([N+](=O)[O-])s1)c1ccccn1	0.031
COc1ccccc1S(=O)(=O)N(C)C[C@@H]1OCc2cnnn2CCCC(=O)N([C@@H](C)CO)C[C@H]1C	0.42
Cc1ccc(OC(=O)N(C)C[C@@H]2OCc3cn(nn3)CCCC(=O)N([C@@H](C)CO)C[C@H]2C)cc1	0.27
Cc1cccc(S(=O)(=O)N(C)C[C@H]2OCc3cn(nn3)CCCC(=O)N([C@@H](C)CO)C[C@H]2C)c1	-0.19
COc1cccc(S(=O)(=O)N(C)C[C@H]2OCc3cn(nn3)CCCC(=O)N([C@@H](C)CO)C[C@H]2C)c1	-0.075
C[C@@H]1CN([C@@H](C)CO)C(=O)CCCn2nncc2CO[C@@H]1CN(C)C(=O)Nc1ccc(N2CCN(C)CC2)cc1	0.56
O=C1O[C@@H](c2ccccc2)[C@@H](c2ccccc2)N2[C@@H](c3ccccc3OCCO)[C@]3(C(=O)Nc4ccc(C#CC5(O)CCCCCC5)cc43)[C@@H](C(=O)NC[C@H](O)c3ccccc3)[C@H]12	-0.42
NC(=O)[C@@H]1[C@H]2C(=O)O[C@H](c3ccccc3)[C@H](c3ccccc3)N2[C@H](c2ccc(OCCO)cc2)[C@@]12C(=O)Nc1ccc(C#CC3=CCCCC3)cc12	-0.32
C[C@H]1CN([C@@H](C)CO)C(=O)CCCn2cc(nn2)CO[C@H]1CN(C)S(=O)(=O)c1ccc(C#N)cc1	-0.23
Cc1nc(S(=O)(=O)NC[C@@H]2CCCN(Cc3cccc(OCCO)c3)C2)cn1C	-0.24
CC(C)C[C@@H]1NC(=O)[C@H]2C[C@@H](C(=O)NCc3ccc(F)cc3)[C@@H](c3cccc(OCCO)c3)N2C1=O	0.026
C[C@H](CO)N1C[C@H](C)[C@@H](CN(C)C)OCc2cn(nn2)CCCC1=O	-0.021
C[C@@H]1CN([C@H](C)CO)C(=O)CCCn2nncc2CO[C@H]1CN(C)C(=O)Nc1ccccc1	-0.2
CCOC(=O)N(C)C[C@H]1OCc2cnnn2CCCC(=O)N([C@H](C)CO)C[C@@H]1C	-0.13
O=C1O[C@@H](c2ccccc2)[C@@H](c2ccccc2)N2[C@@H](c3ccc(O)cc3)[C@]3(C(=O)Nc4ccc(C#CCCO)cc43)[C@@H](C(=O)NC[C@H](O)c3ccccc3)[C@H]12	0.06
COC(=O)CCCCCCC(=O)N/N=C/c1cccnc1Cl	0.062
CC(C)(C)OC(=O)NC/C=N/NC(=O)CCCCCCC(=O)O	0.013
CC(=O)N1Cc2ccccc2C[C@]2(N=C(c3ccc(OCCCO)cc3)O[C@@H]2c2ccccc2)C1=O	0.17
C[C@@H]1CN([C@@H](C)CO)C(=O)CCCn2cc(nn2)CO[C@@H]1CN(C)C(=O)Nc1cccc(F)c1	-0.22
O=C(NO)c1cccc(C(=O)N/N=C/c2ccc(OCc3ccccc3)cc2O)c1	0.076
O=C(NO)c1cccc(C(=O)N/N=C/c2cccnc2Cl)c1	0.4
C[C@@H]1CN([C@H](C)CO)C(=O)CCCn2cc(nn2)CO[C@H]1CN(C)S(=O)(=O)c1ccc(Cl)cc1	-0.39

The list continues.
SMILES	YB-1 expr inh
CC(C)(C)OC(=O)NC1(/C=N/NC(=O)c2cccc(C(=O)NO)c2)CCCC1	0.048
C[C@H](CO)N1C[C@H](C)[C@@H](CN(C)Cc2ccc3c(c2)OCO3)OCc2cnnn2CCCC1=O	-0.13
COc1ccc(C#Cc2ccc3c(c2)[C@]2(C(=O)N3)[C@H](C(=O)O)[C@H]3C(=O)O[C@H](c4ccccc4)[C@H](c4ccccc4)N3[C@@H]2c2ccccc2OCCO)cc1	-0.24
CC(C)C[C@@H]1NC(=O)[C@@H]2C[C@H](C(=O)NCc3ccc(F)cc3)[C@H](c3cccc(OCCO)c3)N2C1=O	0.69
C[C@H]1CN([C@@H](C)CO)C(=O)CCCn2cc(nn2)CO[C@@H]1CN(C)C(=O)Nc1ccc2c(c1)OCCO2	-0.24
COc1cccc(S(=O)(=O)N(C)C[C@@H]2OCc3cnnn3CCCC(=O)N([C@@H](C)CO)C[C@@H]2C)c1	0.25
O=C1O[C@H](c2ccccc2)[C@H](c2ccccc2)N2[C@H]1[C@@H](C(=O)NC[C@H](O)c1ccccc1)[C@]1(C(=O)Nc3ccc(C#CC4=CCCCC4)cc31)[C@H]2c1ccc(OCCO)cc1	0.16
Cc1cccc(S(=O)(=O)N(C)C[C@@H]2OCc3cn(nn3)CCCC(=O)N([C@@H](C)CO)C[C@@H]2C)c1	0.18
COCCOC(=O)N1C(=O)[C@@]2(c3cc(C#CCCO)ccc31)[C@H](c1ccccc1OCCO)N1[C@H](c3ccccc3)[C@H](c3ccccc3)OC(=O)[C@H]1[C@@H]2C(=O)N1CCc2cc(OC)c(OC)cc2C1	-0.078
C[C@H](CO)N1C[C@H](C)[C@H](CN(C)C(=O)Nc2ccc(F)cc2)Oc2ncc(C#CC(C)(C)O)cc2C1=O	0.16
C[C@H](CO)N1C[C@H](C)[C@H](CN(C)Cc2ccncc2)Oc2ncc(C#CCN(C)C)cc2C1=O	-0.07
C[C@@H]1CN([C@H](C)CO)C(=O)CCCn2nncc2CO[C@@H]1CN(C)S(=O)(=O)c1ccc(-c2ccccc2)cc1	-0.39
C[C@@H]1CN([C@H](C)CO)C(=O)CCCn2cc(nn2)CO[C@H]1CN(C)C(=O)c1ccccc1	-0.92
O=C(CCCCCC(=O)N/N=C/c1cccnc1)NO	-0.12
COc1ccc(NC(=O)N(C)C[C@@H]2OCc3cn(nn3)CCCC(=O)N([C@H](C)CO)C[C@H]2C)cc1	-0.26
COCCOC(=O)N1C(=O)[C@@]2(c3cc(C#CC4=CCCCC4)ccc31)[C@H](C(=O)NC[C@H](O)c1ccccc1)[C@H]1C(=O)O[C@H](c3ccccc3)[C@H](c3ccccc3)N1[C@@H]2c1ccccc1OCCO	-0.58
COC(=O)C(CC#Cc1ccc2c(c1)[C@]1(C(=O)N2)[C@H](c2ccccc2OCCO)N2[C@H](c3ccccc3)[C@H](c3ccccc3)OC(=O)[C@H]2[C@@H]1C(N)=O)C(=O)OC	-0.34
COc1ccc(C#Cc2ccc3c(c2)[C@]2(C(=O)N3)[C@H](c3ccc(O)cc3)N3[C@H](c4ccccc4)[C@H](c4ccccc4)OC(=O)[C@H]3[C@@H]2C(=O)NC[C@H](O)c2ccccc2)cc1	-0.004
C[C@H](CO)N1C[C@H](C)[C@H](CN(C)S(=O)(=O)c2ccc(Oc3ccccc3)nc2)OCc2cn(nn2)CCCC1=O	-0.11
COC(=O)C(CC#Cc1ccc2c(c1)[C@]1(C(=O)N2)[C@H](C(=O)O)[C@H]2C(=O)O[C@H](c3ccccc3)[C@H](c3ccccc3)N2[C@@H]1c1ccc(O)cc1)C(=O)OC	0.16
O=C1O[C@@H](c2ccccc2)[C@@H](c2ccccc2)N2[C@@H](c3ccccc3OCCO)[C@]3(C(=O)Nc4ccc(C#CC5=CCCCC5)cc43)[C@@H](C(=O)N3CCN(c4ncccn4)CC3)[C@H]12	0.025
C[C@@H]1CN([C@H](C)CO)C(=O)CCCn2nncc2CO[C@@H]1CN(C)Cc1ccc(C(=O)O)cc1	-0.47
COC(=O)c1ccc([C@H]2C=C(C(=O)N3CCN(Cc4ccc5c(c4)OCO5)CC3)O[C@@H](OCc3ccc(CO)cc3)C2)cc1	-0.035
CCn1c2ccccc2c2cc(/C=N/NC(=O)c3ccccc3O)ccc21	0.22
Cc1ccc(F)cc1S(=O)(=O)N[C@@H]1CCN(Cc2ccc(OCCO)cc2)C1	0.42

Compounds from the list above containing bromine:
SMILES	YB-1 expr inh
O=C(N/N=C/c1ccc(Br)o1)c1ccccn1	-0.18
O=C(NO)c1cccc(C(=O)N/N=C/c2cc(Br)cc([N+](=O)[O-])c2O)c1	-0.17

Going on with the list:
SMILES	YB-1 expr inh
Cc1ccccc1S(=O)(=O)N(C)C[C@@H]1OCc2cn(nn2)CCCC(=O)N([C@H](C)CO)C[C@H]1C	-0.3
COC(=O)[C@@]1(Cc2ccccc2N=[N+]=[N-])N=C(c2ccc(OCCCO)cc2)O[C@H]1c1ccccc1	-0.11
COc1ccc(/C=N/NC(=O)c2ccc(C(=O)NO)cc2)c(OC)c1	-0.042
C[C@H](CO)N1C[C@H](C)[C@H](CN(C)Cc2ccc3c(c2)OCO3)Oc2ncc(-c3ccccc3)cc2C1=O	0.095
O=C(NO)c1ccc(C(=O)N/N=C/c2ccc(O)c(F)c2)cc1	-0.09
C[C@@H]1CN([C@H](C)CO)C(=O)c2cc(NC(=O)CCCCCC(=O)Nc3ccccc3N)ccc2O[C@@H]1CN(C)Cc1ccc(C(F)(F)F)cc1	0.41
C[C@H](CO)N1C[C@H](C)[C@@H](CN(C)C(=O)OCc2ccccc2)OCc2cn(nn2)CCCC1=O	0.089

In another format: entries from further up
YB-1 expr inh	mol
0.21	C[C@H](CO)N1C[C@H](C)[C@H](CN(C)C(=O)NC2CCCCC2)Oc2ncc(C#Cc3ccccc3)cc2C1=O
-0.24	C[C@H]1CN([C@@H](C)CO)C(=O)CCCn2cc(nn2)CO[C@H]1CN(C)C(=O)Nc1ccc(F)cc1

Screening results (PubChem)

These rows are one share of the data; count on the stated rates, not on these rows.
